Screening data from PubChem.
PrP UTR inh – suppresses PrP 5' UTR mRNA reporter expression; actives 0.35% (n = 340,000); inhibition, % (concentration not given with the values); AID 488862; cell-based PrP 5' UTR mRNA reporter, plate reader;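 active means every replicate at 50% or more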;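 further: 0 = median of the neutral control wells; tested in H4 reporter cells; numbers are from one replicate; inactives centre near -14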
Bead autofluor – flagged as autofluorescent in microsphere protease counterscreen; compound autofluorescence counterscreen, microsphere flow cytometry; active compounds read high; fluorescence intensity (no concentration beside the values); AID 624483; actives 3.1% (n = 360,000);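 active means at least 3 SD above the mean of all compounds, about 16000 in these data; inconclusive means too few beads counted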;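 further: 100 nL of 1 mM stock went into each well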
ugtP null kill – growth inhibition of S. aureus ugtP deletion strain; growth inhibition, % (concentration not given with the values); S. aureus RN4220 ugtP deletion, OD600 growth, 16 h; some inactives read as strong as hits; actives 0.54% (n = 330,000); AID 1259309;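 active means z-score under -3 and OD600 up to 0.15 on both plates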;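 further: plate controls were untreated wells for no effect and antibiotic for full effect; wells of about 80 µL received 100 nL stock; the first replicate is given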
BJeLR viability – kills HRASV12-expressing BJeLR cells; BJeLR (HRASV12) viability, CellTiter-Glo ATP luminescence, 48 h; reference of the scale not given here; inhibition, % (concentration not given with the values); actives 0.17% (n = 300,000);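 active means replicate mean above 50%; inconclusive means above 50% but judged a plate artefact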;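 further: 50 nL library stock added to about 25 µL; numbers are from one replicate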
Sa RN4220 lethal – S. aureus RN4220 growth inhibition | OD600, 16 h | inhibition, % (concentration not given with the values) | actives 0.33% (n = 330,000);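 active means z-score of -3 or lower and OD600 up to 0.18 on both plates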;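 further: plate controls were untreated cells for no effect and reference antibiotic for full effect; stock transfer was 100 nL into about 80 µL; one replicate is shown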
Mtb hypoxia rep – inhibitors of hypoxia-regulated fluorescent reporter in Mycobacterium tuberculosis; M. tuberculosis hypoxia-regulated fluorescent reporter, fluorescence; fluorescence inhibition, % (no concentration beside the values); actives 0.1% (n = 300,000);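 active means 35 to 45% if threefold the growth effect, above 45% if 1.5-fold the growth effect; inactive means the rest, general growth blockers included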;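 further: wells of about 50 µL received 100 nL stock; 0% = vehicle wells and 100% = reference inhibitor wells; whole bacteria with a GFP reporter of the hypoxia response; strong numbers were not always called active; many hits fall short of the cut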
Mtb hypoxia rep growth – recorded beside Mtb hypoxia rep, whose call it bears; growth inhibition, %; measured here: M. tuberculosis growth (absorbance);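 0% = vehicle and 100% = reference antibiotic; read after six days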
The depositor's hits bear a star; ? = inconclusive; · = not tested or not shown. Random draw from the library. Share with any hit: about 4%.

SMILES	PrP UTR inh	Bead autofluor	ugtP null kill	BJeLR viability	Sa RN4220 lethal	Mtb hypoxia rep	Mtb hypoxia rep growth
Cc1nn2c(NCc3ccccn3)cc(C(C)(C)C)nc2c1-c1ccccc1	1	4380	11	4	1.4	-13	-9
CCCN(Cc1nnc(-c2ccccc2Cl)o1)C(=O)c1ccc(C)c(S(=O)(=O)N2CCOCC2)c1	-8	·	4	5	5.1	3	-1
O=C1C=C(c2ccccc2C(F)(F)F)C[C@@H](c2ccc3c(c2)OCO3)C1	-21	4139	27	·	-3.0	7	9
Nc1ccc(S(=O)(=O)c2cccc(N)c2)cc1	-17	5630	-7	-7	4.7	2	6
O=C(COC(=O)CCC(=O)c1ccc(F)cc1)NCCc1ccccc1	-17	4067	6	·	5.5	8	6
Cn1c(=O)c2c3c(sc2n2c(SCC(N)=O)nnc12)CC(C(C)(C)C)CC3 (configuration not stated)	-3	7659	-3	11	2.1	5	1
CC(C)CC(=O)Nc1nnc(S(=O)(=O)Nc2ccccc2)s1	-13	3253	-8	1	14	-1	-5
COc1ccc(C2C(C#N)=C(N)OC3=C2C(=O)CC(C)(C)C3)cc1Cn1nc(C)c([N+](=O)[O-])c1C (configuration not stated)	-21	2173	1	1	-0.8	5	1
O=C(C1COc2ccccc2O1)N1CCN(c2ccccc2F)CC1 (configuration not stated)	-24	9065	14	-3	1.5	21	11
CCC(=O)N1CCN(c2ccc(NC(=O)c3cc4ccccc4o3)cc2)CC1	-19	3263	-17	3	-1.0	15	11
Cc1cc(C(=O)N/N=C/c2ccco2)c2ccccc2n1	-8	2094	·	-2	·	·	·
CCn1ncc(CNC(=O)c2cccc([N+](=O)[O-])c2)c1C	·	·	10	3	2.4	4	1
CC(C)CN(C(=O)CSc1nc(N)cc(N)n1)C1CCS(=O)(=O)C1 (configuration not stated)	-13	3788	4	·	5.5	8	9
CC(=O)C1=C(c2cccc([N+](=O)[O-])c2)N(C(C)=O)n2c(C)nnc2S1	-24	2622	12	-7	-0.2	-7	3
CCn1c(=O)c2cc(C(=O)NCCCOC)sc2c2ccccc21	-16	4064	-4	3	-1.4	-6	9
COC(=O)c1[nH]c2cccc(C)c2c1NC(=O)CN1CCCc2ccccc21	2	3349	-16	0	-1.3	·	·
Cc1c(Br)c(=O)[nH]c(=O)n1COCc1ccccc1	-9	4397	2	6	0.5	·	·
COc1ccc2nc3oc(C(=O)N4CCC(C(N)=O)CC4)cc3cc2c1	-4	3244	10	2	5.1	·	·
CCC1(C)Cc2c(sc3nc(SCC(=O)c4ccccc4)[nH]c(=O)c23)CO1 (configuration not stated)	-7	4845	-2	-14	9.2	10	4
COC(=O)[C@@]1(C)[C@H]2C(=O)N(C)C(=O)[C@H]2[C@H]2CN=C(SCc3ccc(C#N)cc3)N21	10	3125	8	·	4.3	-2	2
CCOc1ccc(NC(=O)CN2C(=O)COc3ccc(Cl)cc32)cc1	-5	6435	-1	-9	0.9	·	·
O=C(CCC1CCCN(C(=O)c2cc(C3CC3)[nH]n2)C1)N1CCN(c2ccccn2)CC1 (configuration not stated)	-24	4040	1	2	7.4	-1	0
Nc1ccc(C(=O)OCc2nc3ccccc3[nH]2)cc1	-24	2753	-6	6	-7.0	6	11
O=C(CNC(=O)c1cccs1)NN=Cc1c[nH]c2ccccc12	·	·	13	·	4.5	18	2
CCn1c(Cc2ccccc2)nnc1SCC(=O)Nc1ccc2c(c1)OCCO2	-11	17692*	-1	-13	6.1	10	19
CCOc1ccc(C(=O)NCC(=O)NCCCSc2ccccc2)cc1OCC	-16	6337	3	-2	-0.1	9	12
c1ccc(-c2nc3c4ccccc4ccn3c2CN2CCOCC2)cc1	-10	3110	-3	0	0.8	5	2
Nc1ccc(C(=O)OCC(=O)N2CCc3ccccc3C2)cc1[N+](=O)[O-]	-19	2313	-3	0	3.1	6	10
CCOc1ccc(C=Nn2c(C)nc3ccccc3c2=O)cc1	·	·	-5	·	-0.8	-8	1
O=C(N/N=C/c1cccc(O)c1)c1ccc(NC(=O)C2CCCCC2)cc1	-5	6725	·	0	·	·	·
Cc1ccc(CCNS(=O)(=O)c2ccc3c(c2)N(C)CCO3)cc1	3	5440	3	1	4.4	1	1
CCOC(=O)C1C2COc3cc(OC)ccc3C2N2C(=O)c3ccc(C)cc3NC(=O)[C@@]12C (some centres not stated)	·	·	-1	·	5.2	4	7
O=[N+]([O-])c1ccc(Nc2ccc(F)cc2)nc1	-58	4766	-4	-1	-1.5	-4	-4
O=C(NCC1CC1)c1cccc2c1C(=O)c1ccc(N3CCCC3)cc1S2(=O)=O	-19	4247	0	·	3.0	17	13
Cc1nc2ccc(Cc3ccc4nc(C)[nH]c4c3)cc2[nH]1	2	3092	-3	4	-3.3	5	4
O=C(Cc1ccc(Cl)cc1)N/N=C1\CCCc2ccccc21	-31	10889	·	0	·	·	·
CCCOC(=O)Cc1n[nH]c(=O)[nH]c1=O	-19	4251	3	2	-0.3	·	·
Cn1ncc(Cl)c1C(=O)NNC(=O)Nc1cccc2ccccc12	-6	6018	-1	·	1.0	-4	0
COc1ccc(CNC(=O)/C=C/c2ccc(S(=O)(=O)NCc3ccco3)cc2)cc1OC	-32	3385	-3	-10	1.4	13	7
COc1cc2cc(C(=O)O)n(C)c2c(OC)c1OC	-16	?	-1	-9	-0.7	4	8
O=C(CSc1ncnc2sc3c(c12)CCCC3)N1CCC(c2noc3ccc(F)cc23)CC1	-12	11061	8	40	7.6	8	4
O=C1NC(Cc2ccccc2)C(=O)Nc2ccc(Br)cc21 (configuration not stated)	-54	3199	8	6	5.8	4	5
COc1ccc2c(C)c(C(=O)N3CC[C@@H](N4CCC(O)CC4)[C@H](O)C3)oc2c1	-16	8217	8	3	5.5	9	9
CCn1cc([N+](=O)[O-])c(C(=O)Nc2c(C)nn(Cc3c(F)c(F)c(F)c(F)c3F)c2C)n1	-19	20974*	2	2	0.7	5	4
CC(C)(Oc1ccc(Cl)cc1)C(=O)NC1CCN(Cc2ccccc2)CC1	-1	·	4	16	-0.2	9	12
CN(C)S(=O)(=O)c1cccc(C(=O)OCC(=O)c2ccc3c(c2)NC(=O)CO3)c1	-7	12144	0	1	0.6	2	4
C=CCOc1ccc2ccccc2c1/C=N/O	-23	2050	·	-1	·	·	·
COc1ccc(-c2cc(C(=O)N3CC4(C)CC3CC(C)(C)C4)no2)cc1 (configuration not stated)	-22	11367	-4	0	1.2	-4	18
C/C(=N\NS(=O)(=O)c1cccc([N+](=O)[O-])c1)c1cc2ccccc2o1	-2	4295	·	-3	·	·	·
CCc1ccc2c(CC(=O)NNC(=O)c3ccncc3)coc2c1	-24	3383	0	·	-2.2	9	9
Cc1ccc(N(C(=O)c2snc(C(N)=O)c2N)C(C(=O)NCC2CCCO2)c2ccc(C)o2)c(C)c1 (configuration not stated)	-19	3643	1	1	5.1	18	12
CCOC(=O)c1cccc(NC(=O)CSc2nnc(-c3cccnc3)n2CC)c1	-19	2821	4	-2	0.1	7	7
Cc1ccccc1N1CCN(C(=S)c2ccc(-c3ccc([N+](=O)[O-])cc3)o2)CC1	-29	?	8	0	2.2	-4	9
COc1ccc(-c2cc(=O)c3cc(OC)c(OC)cc3[nH]2)cc1	-29	3017	12	6	7.5	-3	1
CCc1cccc(CC)c1NC(=O)CSc1nnc(CCC(=O)O)c(=O)[nH]1	-14	2059	9	1	5.6	8	5
CN(C)c1ccc(C=NNC(=O)c2ccc(-n3cnnn3)cc2)cc1	·	·	0	·	1.9	-5	-4
CCNC(=S)N(CCO)Cc1cc2cc3c(cc2[nH]c1=O)OCO3	-21	3909	1	-10	2.6	3	-1
CC(C)c1cc(=O)n2[nH]c(SCc3ccccc3Cl)nc2n1	-17	3650	10	0	4.0	4	7
Nc1nnc(-c2ccc([N+](=O)[O-])o2)s1	2	3776	92*	·	98*	6	28
Cc1ccc(S(=O)OCC(=O)Nc2cc(Cl)ccc2N2CCOCC2)cc1 (configuration not stated)	-13	2424	11	2	0.0	10	14

Additional entries
SMILES	PrP UTR inh	Bead autofluor	ugtP null kill	BJeLR viability	Sa RN4220 lethal	Mtb hypoxia rep	Mtb hypoxia rep growth
CCOC(=O)N1CCN(c2nc(=S)n(-c3ccccc3)c(C)c2C(C)=O)CC1	-16	3934	-4	4	-1.4	·	·
COc1ccccc1C=CC(=O)NCC(=O)NN=Cc1ccccc1[N+](=O)[O-]	·	·	-10	·	3.6	9	3
COc1ccc(N(CC(=O)NCc2cccs2)S(=O)(=O)c2cccc(C)c2)cc1	4	·	5	·	1.6	-7	-5
Fc1ccc(-c2ccnc(=S)[nH]2)cc1	-20	5100	82	0	11	-1	1
Cc1c(Cl)cccc1NC(=S)N(Cc1ccccc1)Cc1cccnc1	21	3308	1	-3	11	7	4
COc1ccc(S(=O)(=O)NCC(=O)Nc2ccc(F)cc2)cc1	-10	8641	3	·	2.8	6	3
O=C(NC1CCOC1)c1cc(COc2cccc(C(F)(F)F)c2)on1 (configuration not stated)	-41	5664	-4	-1	1.6	2	19
COc1ccc(/C=N/NC(=O)c2snnc2C)c(OC)c1OC	-21	4359	·	-24	·	·	·
CCCCCNCC(=O)Nc1cccc(C(=O)Nc2cccc(C(F)(F)F)c2)c1	-21	4336	·	-6	·	·	·
COc1ccc(N2CCN(C(=O)CN(C3CCCCC3)S(C)(=O)=O)CC2)cc1	-11	4339	4	-6	8.7	5	-2
CN1C(C(=O)NCCc2cccs2)CC2Cn3c(nc4cc5ccccc5cc43)C21 (configuration not stated)	-21	3690	-1	-4	-2.5	1	0
COC(=O)CN1C(=O)[C@H]2[C@@H](/C=C/c3ccccc3)N3C(=O)CN(CC4CC4)C(=O)[C@@]3(Cc3ccccc3)[C@H]2C1=O	-19	2947	·	2	·	·	·
NC(=O)COc1ccc(C2c3c(oc4ccccc4c3=O)C(=O)N2CC2CCCO2)cc1 (configuration not stated)	-16	7962	3	2	2.3	-2	7
Cc1ccc(O)c(-c2cc(-c3cccc(F)c3)n[nH]2)c1	-36	4546	67	6	-13	8	0
C/C(=N\OC(=O)c1ccc(Cl)cc1)c1nccs1	-22	24861*	·	-2	·	·	·
CC(=NNC(=O)COc1cccc(Br)c1)c1ccc2c(c1)OCCO2	·	·	-7	·	5.3	-3	5
O=C1CCCCC1Sc1nnc(-c2ccc3c(c2)OCO3)o1 (configuration not stated)	55*	3887	-4	6	7.7	25	24
COCCNC(=O)c1onc(CSc2ccccc2)c1C(=O)NCCOC	-6	3970	3	6	5.2	18	4
Cc1ccc2c(c1)N(S(=O)(=O)c1cc(-c3cc(C)no3)ccc1C)CCO2	2	4589	9	6	-10.0	-2	-3
Cc1ccc(CNC(=O)c2ccc(N3CCC4(CC3)CC(c3ccccc3)=NO4)c(NC(=O)c3ccccc3)c2)cc1	-6	2934	-14	4	7.3	9	27

5 compounds from above, ordered by number of heavy atoms, ascending:
SMILES	PrP UTR inh	Bead autofluor	ugtP null kill	BJeLR viability	Sa RN4220 lethal	Mtb hypoxia rep	Mtb hypoxia rep growth
C/C(=N\OC(=O)c1ccc(Cl)cc1)c1nccs1	-22	24861*	·	-2	·	·	·
O=C1CCCCC1Sc1nnc(-c2ccc3c(c2)OCO3)o1 (configuration not stated)	55*	3887	-4	6	7.7	25	24
CC(=NNC(=O)COc1cccc(Br)c1)c1ccc2c(c1)OCCO2	·	·	-7	·	5.3	-3	5
COc1ccc(N(CC(=O)NCc2cccs2)S(=O)(=O)c2cccc(C)c2)cc1	4	·	5	·	1.6	-7	-5
Cc1ccc(CNC(=O)c2ccc(N3CCC4(CC3)CC(c3ccccc3)=NO4)c(NC(=O)c3ccccc3)c2)cc1	-6	2934	-14	4	7.3	9	27

Continuation:
SMILES	PrP UTR inh	Bead autofluor	ugtP null kill	BJeLR viability	Sa RN4220 lethal	Mtb hypoxia rep	Mtb hypoxia rep growth
CC(C)Oc1ccc(Br)cc1/C=N\NC(N)=S	-6	7617	·	-5	·	·	·
Cc1cccc(NC(=O)Cn2c(O)c(N=NC(=O)c3ccncc3)c3ccccc32)c1	-6	4590	-67	0	7.6	13	2
CCOC(=O)C1(Cc2cccc(Cl)c2)CCCN(C(=O)c2occc2C)C1 (configuration not stated)	-9	5627	6	-5	9.9	11	5
CCOC(=O)c1cc2c(nc1N)CCCC2	-19	5059	2	7	2.2	6	-10
CCOC(=O)NC(NC(=O)OCC)C(=O)c1ccccc1	0	7955	6	1	0.8	0	-1
